NS1 function inh = influenza NS1 inhibition | S. cerevisiae slowed by influenza A NS1, growth recovery by OD600 | Potency, µM (top dose mostly 46.1 µM), inactives show top-dose activity, positive = more growth | 0.4% of 270,000 active; also: actives are rising curves; nearly all actives have a fitted effect of over 50% in size
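Recovery from NS1-induced slow growth read by OD600 in budding yeast switched to galactose assay medium (pH 6.0, -URA) at 1:100 dilution. Compound 23 nl per well; the matching strain lacking NS1 serves as control.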
SARS PLpro yeast = inhibitors of SARS-CoV papain-like protease in yeast; Potency, µM (doses to about 32.9 µM), for the others: top-dose activity, positive = growth rescue; 0.19% of 330,000 active; S. cerevisiae expressing SARS-CoV PLpro, growth rescue; control for the full effect not named in the record; also: 0% is about no effect; nearly all actives have a fitted effect of over 55% in size; growth read by luminescence after 48 h
Cruzain Triton = blocks cruzain activity in presence of Triton detergent; 0.43% of 200,000 active; AID 1478; purified cruzain, Z-FR-AMC fluorescence, 0.01% Triton; P25779; Potency, µM, inactives show max response, negative = inhibition, usual class: inhibitors; active = well fitted curve in the direction sought with a large enough effect; inconclusive = small, poorly fitted or top-dose-only effect, or another doubt; inactive = no such curve, though single readings can be large; an effect the other way counts as inactive or inconclusive;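 also: plate controls were neutral wells for no effect and buffer without enzyme for full effect; nearly all actives have a fitted effect of over 40% in size; top concentration of the series not given in the record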
Target sequence (P25779 123-467 limits assumed): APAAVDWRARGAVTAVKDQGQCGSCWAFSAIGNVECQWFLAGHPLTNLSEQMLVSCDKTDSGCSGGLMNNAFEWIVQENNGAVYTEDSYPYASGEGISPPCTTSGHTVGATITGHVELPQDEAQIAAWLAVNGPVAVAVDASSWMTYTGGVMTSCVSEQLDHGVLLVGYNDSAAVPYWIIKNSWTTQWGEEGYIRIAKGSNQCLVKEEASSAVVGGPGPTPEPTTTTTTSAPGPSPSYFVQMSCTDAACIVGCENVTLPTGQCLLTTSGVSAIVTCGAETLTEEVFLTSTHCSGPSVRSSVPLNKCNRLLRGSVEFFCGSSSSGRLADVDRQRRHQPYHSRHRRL
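Enzyme 1.5 nM, Z-FR-AMC 2 uM, NaOAc 100 mM pH 5.5, DTT 5 mM, Triton X-100 0.01%; 15 min RT compound preincubation; kinetic ex360/em450, 60 s delta.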
Lassa entry inh = Lassa virus entry inhibition. 1.2% of 300,000 active. Lassa virus pseudotype entry inhibition, cell reporter; control for the full effect not named in the record. AID 540256. Potency, µM (top dose mostly 37.9 µM), for inactives: at the highest dose activity change, negative = inhibition, usual class: inhibitors; active means well fitted inhibition curve with a large enough effect; inconclusive means small, poorly fitted or top-dose-only effect, or effect the other way; inactive means flat fitted curve, though single readings scatter; tested in HEK293 cells; also: % is scaled to controls: 0 for no effect and ±100 for the full control effect; nearly all actives have a fitted effect of over 50% in size; luciferase read-out
Cruzain noTriton = cruzain (T. cruzi) inhibition without detergent; Potency, µM, inactives show max response, negative = inhibition, actives largely listed as inhibitors; P25779; AID 1476; 2.3% of 200,000 active; purified cruzain, Z-FR-AMC fluorescence, no detergent; active = well fitted curve in the direction sought with a large enough effect; inconclusive = small, poorly fitted or top-dose-only effect, or another doubt; inactive = no such curve, though single readings can be large; an effect the other way counts as inactive or inconclusive;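 also: plate controls were enzyme without inhibitor for no effect and buffer without enzyme for full effect; nearly all actives have a fitted effect of over 40% in size; top concentration of the series not given in the record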
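Detergent-free condition (0.00005% Triton X-100) in acetate buffer pH 5.5 with DTT. 1.5 nM enzyme and compound were pre-mixed 15 min, then 2 uM Z-FR-AMC substrate added; reaction progress from fluorescence change between first and third reads (60 s).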
Marburg entry inh = inhibitors of Marburg virus binding or cell entry; Marburg virus pseudotyped entry inhibition, cell reporter; control for the full effect not named in the record; about a third of the inactives were read at about 46 µM; Potency, µM (doses to about 37.8 µM), inactives show at the highest dose activity change, negative = inhibition, usual class: inhibitors; 1.8% of 300,000 active; active = well fitted inhibition curve with a large enough effect; inconclusive = small, poorly fitted or top-dose-only effect, or effect the other way; inactive = flat fitted curve, though single readings scatter; tested in HEK293 cells; about a fifth of its hits are not listed in these tables; also: % is scaled to controls: 0 for no effect and ±100 for the full control effect; luciferase read-out
StopGo reporter = FMDV 2A StopGo reporter, luciferase signal | human cells with a luciferase reporter of 2A StopGo recoding; control for the full effect not named in the record | Potency, µM (series often up to 57.9 µM), inactives show top-dose signal change, negative = less light | 1.2% of 410,000 active; active = well fitted falling curve with a large enough effect; inconclusive = small, poorly fitted or top-dose-only effect; inactive = no such curve, though single readings can be large or run the other way; tested in HEK293T cells; also: % is scaled to controls: 0 for no effect and ±100 for the full control effect; nearly all actives have a fitted effect of over 45% in size; luciferase light after 4 h
RE007 growth inh = less growth of the S. pombe RE007 Vpr strain. S. pombe RE007 Vpr strain, BacTiter-Glo ATP luminescence, 24 h; control for the full effect not named in the record. Potency, µM (highest dose often 92.2 µM), for inactives: top-dose activity change, negative = less growth. 0.21% of 360,000 active. AID 651644; active = well fitted falling curve with a large enough effect; inconclusive = small, poorly fitted or top-dose-only effect; inactive = no such curve, though single readings can be large or run the other way;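 also: % is scaled to controls: 0 for no effect and ±100 for the full control effect; nearly all actives have a fitted effect of over 50% in size; the assay follows cell death caused by Vpr and the record does not say whether a fall means rescue or toxicity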
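Fission yeast strain RE007, carrying one chromosomally integrated HIV-1 vpr copy, was seeded at OD 0.01 in PMG+AL medium with 23 nL pinned compound. After 24 h at 30 °C and 99% humidity, viability was read by BacTiter-Glo luminescence.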
* = called active by the depositor; ? = inconclusive; / = no result given; & = joins results of further samples; [ ] = remark or other dose. Unless noted, calls follow the shape of the dose curve; as a rule, active means well fitted rising curve with a large enough effect; inconclusive means small, poorly fitted or top-dose-only effect; inactive means no such curve, though single readings can be large or run the other way. Potency is read from the fitted curve at half-maximal effect.

Every second line gives: StopGo reporter, NS1 function inh, Cruzain Triton, SARS PLpro yeast, Marburg entry inh, RE007 growth inh, Lassa entry inh, Cruzain noTriton
Cc1ccc2[nH]cc(CCNS(=O)(=O)c3ccc(F)cc3)c2c1
 : 6%, -5%, /, -2%, /, -10%, /, /
COC(=O)C1=C(C)N(CC2CC2)C(=NCc2cc(OC)c(OC)c(OC)c2)N[C@H]1c1ccccc1
 : -24%, 3%&-1%, /, 0%&-12%, /, 5%, /, /
CC(=O)Cc1nsc(NC(=O)c2ccc(COc3ccccc3Cl)o2)n1
 : -4%, -13%, /, -2%, 8%[46.1 µM], -7%, 22%[46.1 µM], /
O=C(Nc1cccc(F)c1)c1oc2ccccc2c1NC(=O)C12CC3CC(CC(C3)C1)C2
 : 4%, /, -0.6%, /, 0%[46.1 µM], /, ?, 8%
Cc1ccc(NC(=O)C2CCN(S(=O)(=O)c3cccc4nsnc34)CC2)cc1
 : -29%, /, -2.7%, /, -1%[46.1 µM], /, -6%[46.1 µM], -10%
CCOC(=O)c1sc(NC(=O)CCN2CCN(C)CC2)c(C(=O)OCC)c1C
 : -20%, -6%, /, -1%, 0%, -2%, 11µM*, /
O=C(O)C1[C@H]2C(=O)N(Cc3cccs3)C[C@]23C=C[C@H]1O3 (stereo partly specified)
 : -14%, -4%, 5.4%, 0%, 6%, 4%, -1%, 3%
CS(=O)(=O)N(CC(=O)N1CCCC1)c1ccc2c(c1)OCCO2
 : -4%, -5%, 6.4%, ?, 20%, 9%, 4%, 2%
Cc1ccc(NC(=O)c2sccc2C)cc1S(=O)(=O)N(C)C
 : 6%, -12%, -0.8%, -17%, 1%, 6%, -10%, -3%
Cc1oc(/N=C/c2c(O)ccc3ccccc23)c(C#N)c1C
 : /, 6%, -9.6%, -1%, 1%, /, /, 13µM*
CC(=O)Nc1ccc(-n2c(CCC(=O)O)ccc2-c2ccc(C)cc2)cc1
 : 3%, /, -12%, /, 24%[46.1 µM], /, 24%[46.1 µM], ?
CCOC(=O)Cn1c(=O)oc2cc(S(=O)(=O)N(C)Cc3ccccc3)ccc21
 : -15%, 4%, /, 2%, /, 2%, /, /
CC(=O)N1CCCc2cc(S(=O)(=O)N3CCCC(C)C3)ccc21 (stereo unspecified)
 : 5%, 1%, /, 5%, -1%[46.1 µM], -15%, 6%[46.1 µM], /
CCOC(=O)c1cc(C)sc1NC(=S)Nc1ccccc1
 : 1%, -8%, -2.8%, 15%, ?, 2%, ?, -3%
CC1(C)CC(=O)C(C(c2ccc(F)cc2)C2C(=O)CC(C)(C)CC2=O)C(=O)C1
 : -9%, 13%, -4.7%, 4%, 1%, -5%, -4%, -1%
O=C(O)CC1(CC(=O)Nc2cc(F)ccc2Cl)CCCCC1
 : -10%, 0%, /, 0%, /, 10%, /, /
c1cc2cn[nH]c2cc1NC1CCCCCC1
 : /, 10%, -4.2%, -3%, ?, -1%, 12%, -8%
Cc1c(CC(=O)NCCc2ccccc2)c(=O)oc2c(C)c3occ(C(C)(C)C)c3cc12
 : -16%, /, -2.6%, /, 9%[46.1 µM], /, 6%[46.1 µM], -9%
S=C(NCc1ccco1)Nc1ccc(N2CCOCC2)cc1
 : 33%[activator], 2%, -4.0%, -5%, 20%, 0%, 17%, 8%
CCCCN(CC)c1nc(N)c2c(N)nc(OCC)cc2c1C#N
 : -27%, 0%, -17%, 2%, ?, -13%, -40%, 14%
COc1ccc(CCNC(=O)C(=O)NCC(c2ccco2)S(=O)(=O)c2ccccc2)cc1OC (stereo unspecified)
 : ?, /, -1.7%, /, /, /, -12%[46.1 µM], -6%
CCCCNC(=O)O[C@H]1C[C@@H]2CCN3C(=O)CCC[C@H]([C@H]1Cc1ccccc1)[C@H]23
 : -5%, 1%, /, 0%, /, 25%, /, /
Cc1ccc(/C=C/C(=O)OCC(=O)Nc2cccc(S(=O)(=O)N(C)C)c2)o1
 : 0%, -13%, -10%, 3.2µM*, ?, -4%, -4%, -7%
CC(=O)c1ccc(C(=O)N2CCCC(CO)(Cc3ccccc3C)C2)s1 (stereo unspecified)
 : 5%, -9%, /, -3%, 15%, 9%, -29%, /
CCn1c(/C=C/c2ccccc2F)nc2ccccc2c1=O
 : -15%, -17%, /, -12%, -18%, 4%, ?, /
CCOC(=O)CC(NC(=O)CCc1c(C)nc2c(c(C)nn2-c2ccc(C)c(C)c2)c1C)c1ccc(C)cc1 (stereo unspecified)
 : 12%, /, 2.1%, /, -19%[46.1 µM], /, 29%[46.1 µM], -12%
CC(=O)Nc1nnc(SCC(=O)Nc2ccc3c(c2)OCCO3)s1
 : -12%, 2%, /, -1%, 28%, 7%, ?, /
CCc1ccc(-n2c(=O)c3cccnc3n2CC(=O)Nc2cc(OC)ccc2OC)cc1
 : -22%, /, 3.1%, /, /, /, 17%[46.1 µM], -1%
c1ccc(Cc2nnc(N3CCOCC3)c3ccccc23)cc1
 : -4%, -69%, -2.2%, 17%, -15%, 12%, -1%, -8%
CCOc1ccc(N=C(/C(C(=O)C(=O)N2CCOCC2)=C(/O)c2ccccc2)c2ccccc2)cc1
 : 48%[activator], -5%, /, 0%, 8%, -20%, /, /
Cc1ccc(C)c(-n2c(Cc3cc(=O)[nH]c(=O)[nH]3)nnc2SCC(=O)NCc2ccco2)c1
 : 7%, 9%, /, /, 20%, 18%, 6%, /
Cc1cccc(N2CCN(C(=O)C3CCC(=O)N(C4CC4)C3)CC2)c1C (stereo unspecified)
 : -4%, 9%, /, 5µM*, /, 17%, /, /
CCC(=O)Nc1ccc(Cl)c(NC(=S)NC(=O)COc2ccccc2)c1
 : 22%, 21%, -8.5%, 0%, 4%, 17%, -3%, -6%
CC1CN(S(=O)(=O)c2ccccc2)CC(C)O1 (stereo unspecified)
 : -21%, 9%, 4.8%, 1%, 10%, -9%, ?, -1%
N/C(=N\OC(=O)c1ccc(Br)cc1)c1ccccc1
 : -4%, -78%, 1.5%, -7%, 10%, -12%, -15%, 6%
COc1ccc(S(=O)(=O)N(C)C(C)CCc2ccco2)cc1 (stereo unspecified)
 : -6%, 0%, /, 1%, /, -10%, /, /
Cc1ccc(S(=O)(=O)N2CCOCC2)cc1C(=O)NCCN1C(=O)S/C(=C\c2ccccc2Cl)C1=O
 : ?, ?, -8.1%, -7%, ?, -20%, ?, ?
CCOC(=O)C1=C(N)Oc2cc(C)[nH]c(=O)c2C1c1ccncc1 (stereo unspecified)
 : -19%, -4%, -6.1%, -5%, 9%, 1%, -10%, -6%
O=C(NCCN1CCOCC1)C1CCC(=O)N1Cc1ccccc1Cl (stereo unspecified)
 : -5%, -7%, 4.1%, -3%, 1%, -7%, 9%, 11%
COc1ccc(OC)c(NC(=O)c2[nH]c(C)c(C(C)=O)c2C)c1
 : -7%, -6%, -0.9%, 4%, -16%, -2%, 4%, 6%
CC(C)(C)NC(=O)NC(=O)COC(=O)c1ccc(OC(F)(F)F)cc1
 : -3%, 5%, -3.1%, 20%, 6%, -16%, -4%, 5%
CCCc1noc2c1/C(=N\O)CC(CC(C)SCC)C2 (stereo unspecified)
 : -3%, -19%, -1.4%, -14%, 8%, 9%, 1%, -3%
CC(C)N(C(=O)COC(=O)c1cccc(C(=O)OCC(=O)N(C(C)C)C(C)C)n1)C(C)C
 : 5%, /, /, -1%, 18%[46.1 µM], 0%, 3%, /
Cc1ccc(NC(=O)COC(=O)C(NS(=O)(=O)c2ccc(Cl)cc2)C(C)O)cc1C (stereo unspecified)
 : ?, -6%, -16%, ?, ?, 28%, -2%, 24%
COc1ccc(S(=O)(=O)N2CCN(C(=O)c3ccco3)CC2)cc1C(C)(C)C
 : 17%, -17%, /, 0%, /, 4%, /, /
CCOC(=O)c1c(C)oc2nc(C)nc(NCC3CCN(Cc4cc(C)ccc4C)CC3)c12
 : 2%, /, -2.0%, /, /, /, ?, -16%
CCCNC(=O)c1nnsc1S(=O)(=O)c1ccc(Cl)cc1
 : 32µM*, /, /, -33%, ?, 11µM*, 2.8µM*, /
COc1ccc(CCNC(=O)c2cc(S(=O)(=O)N3CCC4(CC3)OCCO4)ccc2F)cc1OC
 : -30%, /, /, 1%, ?, -13%, ?, /
Cc1ccc(C(=O)N/C(N)=N/c2nc3ccccc3o2)cc1
 : -6%, -1%, -3.9%, 5%, 3%, 3%, 0%, ?
Cc1ccc(C)c(N2CCN(C(=O)Cn3c(=O)c4cccn4c4ccc(F)cc43)CC2)c1
 : 0%, /, -6.8%, /, /, /, 1%[46.1 µM], 0%

(further entries)
Every second line gives: StopGo reporter, NS1 function inh, Cruzain Triton, SARS PLpro yeast, Marburg entry inh, RE007 growth inh, Lassa entry inh, Cruzain noTriton
Cc1c(NC(=O)C2CCCO2)cccc1[N+](=O)[O-] (stereo unspecified)
 : 0%, 5%, -0.9%, -4%, 18%, -18%, 20%, -9%
COc1cc(CNC2CCCCC2OC)cc(OC)c1OC (stereo unspecified)
 : -29%, -7%, -1.3%, 2%, -12%[46.1 µM], 2%, 1%, 1%
N#CN/C(=N\S(=O)(=O)c1ccccc1)c1ccccc1
 : 8%, 2%, /, 4%, 29%[46.1 µM], -4%, 5%[46.1 µM], /
OCCC1CN(Cc2cccc(OC3CCCC3)c2)CCN1Cc1ccsc1 (stereo unspecified)
 : -25%, -4%, /, 0%, ?, 3%, -15%[46.1 µM], /
CS(=O)(=O)Nc1ccc(S(=O)(=O)NCCc2ccccc2)cc1
 : 36%[activator], -4%, -1.1%, 2%, -1%, 4%, 4%, -2%
CC1C(=O)CC(c2ccccc2)N(C)C1c1ccccc1 (stereo unspecified)
 : -23%, -15%, 4.2%, -6%, /, 7%, /, -8%
CCCN1CCC(NC(=O)Nc2ccc(Br)cc2)CC1
 : 13%, -3%, /, -4%, /, 2%, /, /
COc1ccc(CNC(=O)CCCN2C(=O)c3ccccc3C2=O)cc1
 : 0%, -2%, /, 1%, /, 2%, /, /
OCCNc1ncnc2ccc(Br)cc12
 : ?, 1%, -5.4%, -1%, 21%, -15%, 3%, -3%
COc1cc(C2NC(=O)C(C#N)=C(Nc3cccc(C)c3)S2)ccc1O (stereo unspecified)
 : 9%, -4%&5%, /, -2%&-1%, /, 2%, /, /

Screening data (PubChem)
